From PubChem
H5N1 antiviral: MDCK cell protection from H5N1 avian flu; cytopathic effect, luminescence, 72 h; active compounds read high; no value below 0 was filed and about half of the inactive calls have no number; reference of the scale not given here; inhibition, % at 50 µM; 96,000 tested, 0.07% active; AID 740; in the data active = inhibition above about 25%
Starred values were filed as active, the others as inactive; i = inactive. Only part of the results is shown; the hit share may differ from the screen's.

SMILES	H5N1 antiviral
Cc1ccc(NC(=O)N(CCCN2CCOCC2)Cc2cccs2)cc1C	i
O=C(COc1ccc(Cl)cc1)N1CCN(C(=O)c2cccc(F)c2)CC1	1.0
O=C(NCC1CCCO1)C1CCC(=O)N1CCc1ccccc1 (stereo unspecified)	i
CCCN(CCO)Cc1ccc(Cl)c(Cl)c1	0.2
N/C(=N\OS(=O)(=O)c1ccccc1)c1ccncc1	0.4
Cc1cc(C(=O)Nc2ccccc2)oc1C	i
N#CC1=C(N)SC2(CCCCC2)SC1c1ccccc1 (stereo unspecified)	0.5
COC(=O)c1cc(S(=O)(=O)N2CCOCC2)c(Cl)cc1N1CCOCC1	i
COc1ccc2[nH]c3c(N4CC(C)OC(C)C4)ncnc3c2c1 (stereo unspecified)	i
Cc1ccc(S(=O)(=O)n2c(CN3CCCC(C)C3)nc3ccccc32)cc1 (stereo unspecified)	3.9
CCN(CC)C(=O)Cn1cnc2ccccc2c1=O	i
CCCNC(=O)CC1C(=O)N(Cc2ccccc2)C(C)c2nc3ccccc3n21 (stereo unspecified)	i
O=C(C1CCN(C2CC(=O)N(Cc3ccccc3)C2=O)CC1)N1CCCCCC1 (stereo unspecified)	0.2
O=C(Nc1nc(-c2ccccc2)ns1)c1cccs1	0.2
CC(=O)N(Cc1cc2c(C)cc(C)cc2[nH]c1=O)C1CCCCC1	0.4
Cc1ccc(O)c(NC(=O)c2ccco2)c1	1.5
COC(=O)C(NC(=O)C(C)Oc1ccccc1)C(C)C (stereo unspecified)	1.2
COC(=O)Oc1c(Br)c(=O)oc2ccccc12	0.7
COc1ccccc1CNC(=O)CN(C)CC(=O)Nc1cccc(F)c1	i
Nc1cccc(NC(=O)c2cccs2)c1	1.1
Cc1ccc(-n2nc3c(c2NC(=O)c2ccc4c(c2)OCO4)CSC3)c(C)c1	i
CC(C)C(NC(=O)c1ccc(Cl)cc1)C(=O)NC1=NCCS1 (stereo unspecified)	i
O=C(OCC(=O)N1CCN(C(=O)c2ccco2)CC1)c1cc(-c2ccc(F)cc2)nc2ccccc12	i
CN(C)C(=O)c1ccccc1Sc1ccc(Cl)cc1Cl	0.3
COc1ccccc1C1C=C(c2ccc(Cl)cc2)Nc2nc(N3C(=O)CCC3=O)nn21 (stereo unspecified)	i
CCC(C)C(NC(=O)C(N)CC(C)C)C(=O)NC(CCC(=O)OCc1ccccc1)C(N)=O (stereo unspecified)	0.5
COc1ccccc1OC(=O)c1ccc2nsnc2c1	0.1
Cc1nnc(NCCc2ccccc2)n(N)c1=O	i
Cn1c(CN2CCCCC2)nc2cc(NC(=O)c3ccc(Cl)cc3)ccc21	i
CCOC(=O)c1c(C)[nH]c(C)c1C(=O)CSc1nc(N)cc(N)n1	1.7
COc1cccc(NC(=S)NNC(=O)c2c([N+](=O)[O-])c(C)nn2C)c1	i
Cc1c(N/C=C/C(=O)c2cccs2)c(=O)n(-c2ccccc2)n1C	2.0
CCCOc1ccc(-c2nc(N)n[nH]2)cc1	0.3
CCOC(=O)c1c(CN2CCN(C)CC2)oc2ccc(OC)cc12	i
CCC(NC(=O)c1ccc([N+](=O)[O-])cc1[N+](=O)[O-])c1ccccc1 (stereo unspecified)	i
O=c1nc(/C=C/c2cc([N+](=O)[O-])ccc2Cl)cc(C(F)(F)F)[nH]1	0.7

The list goes on; the last 5 above are carried over.
SMILES	H5N1 antiviral
Cc1c(N/C=C/C(=O)c2cccs2)c(=O)n(-c2ccccc2)n1C	2.0
CCCOc1ccc(-c2nc(N)n[nH]2)cc1	0.3
CCOC(=O)c1c(CN2CCN(C)CC2)oc2ccc(OC)cc12	i
CCC(NC(=O)c1ccc([N+](=O)[O-])cc1[N+](=O)[O-])c1ccccc1 (stereo unspecified)	i
O=c1nc(/C=C/c2cc([N+](=O)[O-])ccc2Cl)cc(C(F)(F)F)[nH]1	0.7
CCCc1ccc(-c2cc(C(=O)NN3CCOCC3)c3ccccc3n2)cc1	i
N#C/C(=C1\CCCN1)c1nc(-c2ccccc2)cs1	0.3
CC(=O)NCCOc1cccc2ccccc12	0.6
COc1ccc(C2=NN(C(=O)c3cccc([N+](=O)[O-])c3)C(c3cccc([N+](=O)[O-])c3)C2)cc1 (stereo unspecified)	i
Cc1cc(NC(=O)CSc2nc3ccccc3c(=O)n2CCCC(=O)NCc2ccccc2)n[nH]1	3.0
C=CCNc1nc(N(c2ccccc2)c2ccccc2)nc(-n2ccnc2)n1	0.5
CCCC(=O)N(CCc1ccccc1)Cc1nc2ccccc2c(=O)[nH]1	0.6
CCOCCCNC(=O)C(c1ccc(C)cc1)N(Cc1ccc2c(c1)OCO2)C(=O)c1cnccn1 (stereo unspecified)	0.1
CC(C)C(OC(=O)c1ccco1)C(=O)NCc1cccs1 (stereo unspecified)	0.8
COc1ccc2nc(NC(=O)CNS(=O)(=O)c3cccs3)sc2c1	i
CCOC(=O)C(CC)Sc1nnc2n1C(C)(C)Cc1ccccc1-2 (stereo unspecified)	3.1
COc1ccc(OC)c2c1C(=O)c1ccccc1C2=O	0.3
Cc1ccc2nc(NC(=O)Cn3cc4c(n3)CCCCC4)sc2c1	0.0
CCOC(=O)Cc1csc(NC(=O)c2ccc(S(=O)(=O)N3CCCCC3)cc2)n1	0.3
Cc1cccnc1NC1=NCC(C)S1 (stereo unspecified)	i
CCOC(=O)COc1nc(OC)nc(N2CCOCC2)n1	1.0
O=c1c2ccccc2oc2nc(-c3ccco3)n(Cc3ccccc3)c(=O)c12	i
COc1ccc(C2C=C(C)Nc3nc(SC)nn32)cc1 (stereo unspecified)	i
CN1CCC(=NNC(=O)CSCc2ccccc2)CC1	0.9
O=C(NCC1COc2ccccc2O1)C1CCC(CNc2c(N3CCCCC3)c(=O)c2=O)CC1 (stereo unspecified)	1.1
O=C(CC1CCCC1)Nc1nnc(C2CC2)s1	0.3
O=C(CSc1nnc(-c2ccncc2)n1CC1CCCO1)NCc1ccccc1 (stereo unspecified)	i
O=C(c1cccc(S(=O)(=O)N2CCOCC2)c1)N1CCCC1	0.3
Cc1ccc(Cn2nc(C)c(NC(=O)c3cc(-c4ccco4)on3)c2C)cc1	1.7
CCOC(=O)Nc1sc(C(=O)N(C)C)c(C)c1C(=O)OCC	i
O=C(CSc1nc2ccccc2o1)c1ccc2c(c1)OCCO2	0.5
CC(C)NS(=O)(=O)c1ccc(OCC(=O)NCc2cccnc2)cc1	0.2
CCOC(=O)c1cc(-c2ccccc2)sc1NC(=S)Nc1cc(C)ccn1	1.2
Cc1cccc(NC(=O)CN(C)S(=O)(=O)c2cccc3nsnc23)c1C	0.9
O=C(O)CC(Cc1ccc(Br)cc1)C(=O)O (stereo unspecified)	0.3
CCC(C)NC(=O)N[C@@H](Cc1ccccc1)C(=O)O (stereo partly specified)	i
O=c1cc(/C=C/c2ccccc2)oc2ccccc12	0.1
CCOC(=O)c1ccc2c(c1)nc(SCC(=O)NC(C)C)n2CC	0.3
O=C(CSc1ncn[nH]1)Nc1ccccc1C(=O)O	i
COc1ccc(/C=C(\NC(=O)c2ccccc2)C(=O)N/N=C/c2ccncc2)cc1	1.3
CC(=O)Nc1ccc(N/C=C/C(=O)c2ccc(C)o2)cc1	i

Gathered by group: the entries above with a nitro group on carbon
SMILES	H5N1 antiviral
COc1cccc(NC(=S)NNC(=O)c2c([N+](=O)[O-])c(C)nn2C)c1	i
CCC(NC(=O)c1ccc([N+](=O)[O-])cc1[N+](=O)[O-])c1ccccc1 (stereo unspecified)	i
O=c1nc(/C=C/c2cc([N+](=O)[O-])ccc2Cl)cc(C(F)(F)F)[nH]1	0.7
COc1ccc(C2=NN(C(=O)c3cccc([N+](=O)[O-])c3)C(c3cccc([N+](=O)[O-])c3)C2)cc1 (stereo unspecified)	i

Continuation:
SMILES	H5N1 antiviral
CCCn1c(-c2ccc(F)cc2)cnc1SCC(=O)O	0.9
COc1ccc(C2CC(=O)c3cnc(NC(=O)c4ccccc4OC)nc3C2)c(OC)c1 (stereo unspecified)	0.6
N#CCCn1c(C2CCCCC2)nc2ccccc21	1.4
CCOc1ccc(C(=O)OCC(=O)c2c(N)n(C)c(=O)n(C)c2=O)cc1OCC	1.1
Nc1nc(-c2nc3ccccc3[nH]2)cs1	i
COc1cc(NC(=O)c2cccs2)c(C(=O)OCC(=O)NC(C)c2ccccc2)cc1OC (stereo unspecified)	i
CCOc1ccc(NC(=O)N2CCC(c3ccc(C)cc3)C2)cc1 (stereo unspecified)	i
S=C(NCc1ccco1)N1CCN(C(c2ccccc2)c2ccccc2)CC1	0.3
Cc1c(C(=O)N2CCOCC2)sc2ncnc(N3CCc4ccccc4C3)c12	2.0
O=C(NCCCn1ccnc1)c1cc(-c2ccc3c(c2)OCO3)on1	i
CCN1CCN(C(=O)c2cc(-c3cccnc3)nc3ccc(Br)cc23)CC1	i
Nc1nc(-c2ccc(Cl)cc2Cl)cn1N	i

3 entries out of the list, ordered by SMILES length, descending.
SMILES	H5N1 antiviral
COc1ccc(C2CC(=O)c3cnc(NC(=O)c4ccccc4OC)nc3C2)c(OC)c1 (stereo unspecified)	0.6
O=C(NCCCn1ccnc1)c1cc(-c2ccc3c(c2)OCO3)on1	i
N#CCCn1c(C2CCCCC2)nc2ccccc21	1.4

Remaining list, next part.
SMILES	H5N1 antiviral
CCC(=NCc1cccnc1)c1c(O)n(Cc2ccccc2)c(=O)[nH]c1=O	i
COc1ccccc1Oc1ccc(S(=O)(=O)Nc2cccnc2)cc1	1.7
COCCNC(=O)CCCCCN1C(=O)CCC1=O	0.2
Cc1cccc(C2CC(c3ccc(F)cc3)Nc3nc(N)nn32)c1 (stereo unspecified)	i
COc1cccc(/C=N/NC(=O)c2c(-c3ccccc3)noc2C)c1O	i
CCN(CC)CCNc1ncnc2c1sc1nc(N3CCOCC3)c3c(c12)CC(C)(C)SC3	i
O=C1c2ccccc2C(O)(Cc2ccccc2)N1C1CCCCC1 (stereo unspecified)	i
COc1ccc(N(CC(=O)N2CCN(C)CC2)S(C)(=O)=O)cc1OC	i
Cc1ccc(S(=O)(=O)N2CCN(C(=O)CSc3ncc(C(F)(F)F)cc3Cl)CC2)cc1	0.8
CC(=O)Nc1ccc2c(c1)CC1(C(=O)N(C)C(=O)N(C)C1=O)C1CCCN21 (stereo unspecified)	0.4
CCc1nnc(NC(=O)CSc2nnc(COc3ccccc3)n2-c2ccc(C)cc2)s1	i
O=C(NN=C1CCCCCC1)c1cc(-c2ccccc2)nc2ccccc12	i
Cc1nc(N2CCN(C(=O)CCC(=O)O)CC2)c2c(C)c(C)sc2n1	i
O=C(Nc1ccnc(-c2cccnc2)n1)c1cccc(Cl)c1Cl	0.3
CC(C)CNC(=O)COC(=O)c1cncc(Br)c1	i
COc1cccc(Oc2nnnn2-c2ccccc2)c1	i
Cc1ccc(-c2nnc(SCc3ccccc3F)o2)cc1	i
CNc1ncc(C(=O)c2ccccc2)s1	i
O=C(O)CC(NCc1ccco1)C(=O)OCC1CCCO1 (stereo unspecified)	i
COc1ccc(C(NC(N)=O)c2ccccc2)cc1 (stereo unspecified)	i
COC(=O)c1ccc(SCc2cnc(Cl)s2)cc1	1.2
COc1ccc(-n2cnnc2SC(C)c2nc3sc(C)c(C)c3c(=O)[nH]2)cc1 (stereo unspecified)	1.0
O=C(Nc1cccnc1)c1c(F)cccc1F	0.4
CCOC(=O)c1c(NC(=O)CSc2nnc(-c3cccnc3)n2Cc2ccco2)sc(C)c1C	1.6
COc1cccc(/C=N/NC(=O)CSc2nnc(C)n2-c2ccccc2)c1O	0.3
COc1ccccc1NC(=O)C(CC=C(Cl)Cl)C(C)=O (stereo unspecified)	i
COc1ccc(-c2nc3n(c(=O)c2C#N)CCCS3)cc1	2.7
C=CCn1c(Oc2cc(C)ccc2C)nc2c1c(=O)n(C)c(=O)n2C	2.1
CCN(CC)S(=O)(=O)c1cccc(C(=O)NC(C(=O)NC2=NCCS2)C(C)C)c1 (stereo unspecified)	i
CCc1ccc(N(C(C)=O)C2C=CS(=O)(=O)C2)cc1 (stereo unspecified)	0.8
Cc1nc2c(=O)n(C)c(=O)[nH]c2n1Cc1ccccc1	0.1
O=C(Nc1cnc2sccn2c1=O)c1ccc(Cl)cc1Cl	i
NC(=O)c1ccc(-n2nnnc2SCC(=O)Nc2ccccc2-c2ccccc2)cc1	2.0
Cn1c(SCC(=O)NC2CCCCC2)nnc1-c1cc2ccccc2o1	i
CN(C)S(=O)(=O)c1ccc(C(=O)NCCOc2ccccc2)cc1	0.9
CC(C)N(CCNC(=O)C1CCC(=O)N1Cc1ccc(F)cc1)Cc1ccccc1 (stereo unspecified)	i
OC(COc1ccccc1Cl)CN1CCN(CC(O)COc2ccccc2Cl)CC1 (stereo unspecified)	i
Cc1cc(N=Cc2cc(Br)ccc2O)no1	0.2
O=C(O)Cn1nnn(-c2ccccc2)c1=S	i
CC(C)C(NC(=O)C1CCCCC1)C(=O)NC1CCN(Cc2ccccc2)CC1 (stereo unspecified)	i
O=C(NCc1ccc2c(c1)OCO2)C1CCCN(C(=O)c2ccc(Cl)cc2)C1 (stereo unspecified)	i
COc1ccccc1CNC(=O)CCNS(=O)(=O)c1cccc2nsnc12	1.3
Cc1ccccc1NC(=O)Cn1nnc(-c2ccc(N3CCOCC3)cc2)n1	0.8
CSc1nnc([C@H](C)NC(=O)OC(C)(C)C)o1	0.3
Cc1cc(C)c(C(=O)CSC2=NC(N)=C(C#N)C3(CCCCC3)C2C(N)=O)cc1C (stereo unspecified)	i
Cc1c(NC(=O)CN2CCCc3ccccc32)c(=O)n(-c2ccccc2)n1C	i
COc1ccc(-n2c(SCC(=O)N3CCCCC3)nc(O)cc2=O)cc1	0.5
Cc1ccccc1C(=O)Nc1nc2n(n1)C(c1ccccc1)CC(=O)N2 (stereo unspecified)	i
O=S(=O)(NCCSc1ccccc1)c1cccs1	0.5
